E coli growth = blocks Escherichia coli growth. AID 1053175. OD600 absorbance (concentration not given with the values). OD600, 23 h; stronger effect = lower value. actives 0.21% (n = 330,000);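 active = OD600 absorbance below the run mean of sample wells minus 3.6 SD, in any replicate, cut at about 0.56 in these data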;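 also: stock transfer was 300 nL into about 60 µL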
UCH37 inh = inhibitors of human deubiquitinating enzyme UCH37; Q9Y5K5; purified proteasome/UCH37, Ub-AMC cleavage fluorescence; inhibition, % (test concentration not listed); actives 0.33% (n = 330,000); AID 588478;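 active = mean of two replicates above 20%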;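 also: 0% = compound-free wells with enzyme and 100% = wells lacking proteasome; stock transfer was 100 nL into about 20 µL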
Target sequence (Q9Y5K5 whole entry, looked up): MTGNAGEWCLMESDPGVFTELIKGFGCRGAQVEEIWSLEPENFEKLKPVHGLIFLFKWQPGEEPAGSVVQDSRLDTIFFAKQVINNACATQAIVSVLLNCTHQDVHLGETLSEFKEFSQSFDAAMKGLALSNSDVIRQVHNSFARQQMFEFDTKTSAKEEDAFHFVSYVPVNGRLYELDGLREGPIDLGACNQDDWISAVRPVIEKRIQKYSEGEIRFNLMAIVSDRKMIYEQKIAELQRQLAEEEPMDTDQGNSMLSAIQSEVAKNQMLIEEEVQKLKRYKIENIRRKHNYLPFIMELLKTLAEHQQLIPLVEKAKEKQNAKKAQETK
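assay system = human UCH37 enzyme supplied as purified proteasome complex | amount = proteasome at 0.15 nM in the dispensed enzyme solution | schedule = 30 min compound-proteasome preincubation then 25 min substrate reaction, room temperature | measured by = fluorescence, ex 355 nm, em 460 nm | benchmarks = no-proteasome wells (full inhibition) and compound-free wells (no inhibition)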
B2AR ag = human beta-2 adrenergic receptor agonism by FAP; P07550; Am2.2-beta2AR cells, FAP receptor internalization, flow cytometry; reference of the scale not given here; response, % (concentration not given with the values); actives 0.43% (n = 340,000); AID 504454;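 active = response above a set limit, near 3 SD of response in nonfluorescent compounds, cut at about 42% in these data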;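 also: stock transfer was 100 nL into about 11 µL; a reference agonist was the positive control; negative values mostly stem from fluorescent compounds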
rRNA inh HTS = inhibitors of bacterial rRNA selective over humanized ribosomes; GFP signal change (wild-type ribosome), % (test concentration not listed); actives 1.6% (n = 350,000); E. coli WT GFP vs humanized-ribosome RFP mutants, fluorescence, 24 h; stronger effect = lower value; DMSO median 0, no signal -100;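 active = significant combined selectivity score with lowered wild-type GFP, culture density cut under 30%, mutant RFP and density less affected; inactive = any of these conditions unmet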; also: one replicate is shown; some compounds called inactive have numbers as strong as hits
ALR H2O2 inh = human ALR oxidase inhibition via reduced H2O2; P55789; purified ALR, DTT oxidation, H2O2 HRP-luminol luminescence; inhibition, % (no concentration beside the values); actives 3.8% (n = 290,000);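 active = mean and each replicate at 75% or more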;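 also: stock transfer was 7.5 nL into about 7.5 µL; 0% = neutral wells and 100% = wells with inactivated enzyme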
FGF22 binding = FGF22 (human) thermal shift binding | recombinant FGF22 thermal shift, SYPRO orange fluorescence; percent of sucrose octasulfate shift, DMSO zero | calls only at 9.99 µM | actives 1.5% (n = 340,000) | AID 651658;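 active = melting point raised past a set limit in the mean and every replicate; three in four hits are not shown here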
Target sequence (Q9HCT0 whole entry, looked up): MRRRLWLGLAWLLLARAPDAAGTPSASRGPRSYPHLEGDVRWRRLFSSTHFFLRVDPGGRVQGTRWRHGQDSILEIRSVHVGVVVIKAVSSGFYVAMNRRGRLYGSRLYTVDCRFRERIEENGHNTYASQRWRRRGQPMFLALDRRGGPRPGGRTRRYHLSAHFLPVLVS
HNF4A DNA FP = change in binding of human HNF4 alpha to DNA; AID 1224865; actives 0.3% (n = 360,000); HNF4a-FITC DNA binding, fluorescence polarization, 1 h; activity change, % at 10 µM; P41235; in the data active = activity change above about 30%, passing the limit was not always enough;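 also: controls were the assay level and a saturating level of protein; the project sought stronger binding though the title names inhibitors; some compounds called inactive have numbers as strong as hits; positive values seem to mean higher polarization but the record does not say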
Target sequence (P41235 whole entry, looked up): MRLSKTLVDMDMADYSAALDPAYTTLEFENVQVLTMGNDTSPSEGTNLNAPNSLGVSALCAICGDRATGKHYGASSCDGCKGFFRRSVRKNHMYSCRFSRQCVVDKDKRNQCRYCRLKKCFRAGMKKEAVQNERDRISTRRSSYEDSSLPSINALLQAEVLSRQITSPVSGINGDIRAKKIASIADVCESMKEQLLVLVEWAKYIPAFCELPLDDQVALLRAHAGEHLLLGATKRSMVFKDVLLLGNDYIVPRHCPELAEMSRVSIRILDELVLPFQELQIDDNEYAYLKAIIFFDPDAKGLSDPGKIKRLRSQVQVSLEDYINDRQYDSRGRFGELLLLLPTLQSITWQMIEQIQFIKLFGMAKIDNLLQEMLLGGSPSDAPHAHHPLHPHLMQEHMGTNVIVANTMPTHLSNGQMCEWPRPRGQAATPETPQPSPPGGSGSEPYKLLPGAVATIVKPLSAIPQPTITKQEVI
rRNA inh HTS OD600 = also measured in rRNA inh HTS; calls as there; OD600 change, %; measured here: OD600 growth;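 optical density of the mix in the first replicate; 0 = DMSO median and -100 = no signal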
rRNA inh HTS RFP = further read-out of rRNA inh HTS, marked with its call; RFP signal change, %; measured here: RFP humanized mutant strains;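 first replicate; 0 = DMSO median and -100 = no signal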
Active calls of the source: *; i = inactive; x = no result given. A portion of the library, so the mix of outcomes need not match the whole.

SMILES	E coli growth	UCH37 inh	B2AR ag	rRNA inh HTS	rRNA inh HTS OD600	rRNA inh HTS RFP	ALR H2O2 inh	FGF22 binding	HNF4A DNA FP
CCC(=O)N1CCC1(C)C(=O)Nc1cccc(OC)c1 (stereo unspecified)	x	x	x	2.9	12.6	2.7	x	i	-1.4
Cc1cc(Cl)nc(-c2ccccc2)n1	0.636	1.5	0.8	24.7	16.7	1.4	-7.0	i	1.8
Cn1c(=O)c([N+](=O)[O-])c(NCCc2ccccc2)c2ccccc21	0.661	5.4	-4.7	x	x	x	-3.5	x	1.0
COc1cc(CN2CCNC(=O)C2CC(=O)NC2CCC2)cc(OC)c1 (stereo unspecified)	0.712	-2.9	-1.5	3.2	5.0	-1.7	-15.4	i	1.1
CC1CCc2sc(NC(=O)c3ccc(N4C(=O)CCC4=O)cc3)c(C(N)=O)c2C1 (stereo unspecified)	0.652	-188.0	25.0	8.2	5.6	-1.5	-2.1	i	-1.6
C=CS(=O)(=O)N(Cc1ccccc1Br)[C@H](CO)Cc1ccccc1	x	3.8	-2.0	-7.3	-8.3	1.0	x	i	-2.2
CCOC(=O)[C@@H]1[C@H]2COc3cc(OC)ccc3[C@H]2N2C(=O)N(c3cccc(F)c3)C(=O)[C@]12C	x	2.3	-2.0	12.3	16.8	-1.2	3.5	i	-2.0
Nc1c(S(=O)(=O)c2ccccc2)nnn1-c1ccccc1	0.672	-5.1	4.5	x	x	x	-0.4	x	6.2
O=C(NC1CCCC1)C1CCCN(C(=O)Nc2ccccc2)C1 (stereo unspecified)	0.696	0.3	-2.8	8.5	12.1	-0.6	x	i	2.8
COC(=O)c1nn(-c2ccc(OC)cc2)c(=O)cc1Oc1cccc(Cl)c1	0.667	-2.6	2.2	x	x	x	-5.8	x	0.3
Cc1cc(NS(=O)(=O)c2ccc(NC(=O)Nc3cccc(Cl)c3)cc2)no1	0.693	5.1	2.9	-51.8	-66.9	-15.9	97.8*	x	-4.5
Cc1ccc(-c2csc(NC(=O)C3CCN(S(=O)(=O)c4cccs4)CC3)n2)cc1	0.71	-1.5	11.0	x	x	x	-5.0	x	-0.3
Nc1c(/C=C2/C=CC(=O)C(O)=C2)c(=O)nc2sc(CC(=O)N3CCOCC3)nn12	x	x	-0.3	8.9	10.0	2.7	x	i	-0.9
C=CCCOc1ccccc1C(N)=O	0.652	2.2	-4.3	6.3	8.6	2.2	-3.2	i	-3.7
CCn1c(=O)cc(SCC(=O)NCc2ccc(C)cc2)c2ccccc21	0.744	0.3	-5.1	x	x	x	x	x	-3.8
O=C(Cc1c(Cl)cccc1Cl)N1CCN(S(=O)(=O)c2cccs2)CC1	0.685	-2.4	1.0	4.4	-8.0	0.7	x	i	-1.3
CNC(=O)N(O)C1N(/N=C/c2ccc(C)cc2)C(=S)SC1(C)C (stereo unspecified)	x	x	-6.1	7.9	7.3	-0.1	61.4	i	-2.9
Cn1c2c(c(=O)n(C)c1=O)C(c1ccccc1OC(F)F)C1=C(CCCC1=O)N2 (stereo unspecified)	0.716	-163.0	1.4	x	x	x	x	x	-0.1
Cc1cc2c(c(SCC#N)n1)C(=O)OC2	0.691	4.5	0.5	2.3	0.9	-1.1	x	i	2.1
O=C(CSc1ncn[nH]1)Nc1ccccc1-c1ccccc1	0.635	-1.1	-2.1	x	x	x	-2.5	x	1.5
COc1cccc(C2/C(=C(/O)c3ccc4c(c3)CC(C)O4)C(=O)C(=O)N2CC2CCCO2)c1 (stereo unspecified)	0.65	7.0	3.5	x	x	x	-6.7	x	-2.3
Cc1nnc(C)n1/N=C/c1cccs1	x	x	9.7	x	x	x	-4.7	x	1.0
OCC1(CCCc2ccccc2)CCN(C2CCC2)CC1	0.666	-2.3	-4.2	20.3	7.0	2.3	x	i	1.4
CCC(=O)Oc1ccc(NC(=O)CSCc2ccccc2)cc1	0.716	4.2	-4.6	-1.0	-3.7	0.8	2.4	i	-0.5
CN(Cc1ccccc1)C(=O)C(=O)c1cn(CC(=O)N2CCCC2)c2ccccc12	0.717	3.2	6.2	3.9	8.8	1.0	-7.4	i	0.8

(further entries)
SMILES	E coli growth	UCH37 inh	B2AR ag	rRNA inh HTS	rRNA inh HTS OD600	rRNA inh HTS RFP	ALR H2O2 inh	FGF22 binding	HNF4A DNA FP
COC(Cn1c(C)c(C(C)=O)c(C(C)=O)c1C)OC	0.752	-7.0	8.5	x	x	x	-16.3	x	-0.8
O=C1C=C(c2ccccc2)C(c2ccccc2)C1O (stereo unspecified)	x	x	1.3	8.3	11.9	7.2	x	i	-2.6
O=C(CSc1nnc(-c2ccc(Cl)cc2)n1Cc1ccco1)Nc1ccc2c(c1)OCCO2	0.722	4.6	-11.3	x	x	x	-10.9	x	2.8
Fc1ccccc1NC(=S)NCCc1ccccc1	0.748	6.1	-15.0	x	x	x	-4.4	x	-5.1
Cn1cc(/C=C/C(=O)c2ccccc2)c2ccccc21	0.712	-0.4	11.5	x	x	x	x	i	15.6
CC(C)/C=C/CN1CCN(CCCc2ccccc2)C(CCO)C1 (stereo unspecified)	0.678	1.7	-17.1	15.9	9.6	1.6	8.5	i	-0.6
COc1ccc(NC(=O)CN2C(=O)CSC2=O)cc1	0.633	-0.8	-2.2	x	x	x	21.6	x	-1.7
COC(=O)/C(=C1/Oc2ccc(C(C)(C)C)cc2S1)C(F)(F)F	0.718	2.0	6.5	10.7	-5.5	1.9	-1.0	i	2.6
Cc1ccc2oc(=O)n(CCOc3ccccc3Cl)c2c1	0.797	3.1	15.1	-5.1	-13.8	-1.4	-5.7	i	2.3
O=C1C2C3C=CC(C4CC34)C2C(=O)N1Cc1ccccc1 (stereo unspecified)	0.658	-0.9	-3.2	-5.5	-0.1	-2.8	0.0	i	0.5
Cc1ccc(S(=O)(=O)N2CCCC2)cc1C(=O)NCCOc1ccccc1	0.702	1.3	8.1	2.3	-3.3	-0.5	1.1	i	0.0
COc1cc(/C=N/N(c2ccccc2)c2ccccc2)ccc1O	x	x	2.0	-6.9	-5.1	-1.8	x	i	-2.0
COc1cccc(CN(CC(=O)NCC2CCCO2)C(=O)CCC(=O)Nc2cc(C)on2)c1 (stereo unspecified)	0.683	-2.0	-0.4	x	x	x	-1.9	x	5.3
CN(Cc1nccs1)C(=O)C1CCC(=O)N(Cc2ccccc2F)C1 (stereo unspecified)	0.731	-2.1	-5.0	2.8	1.5	1.0	-6.3	i	-2.3
Cc1ccc(S(=O)(=O)N2CCN(C(=O)CN3CCCSc4ccccc43)CC2)cc1	0.676	0.6	3.1	-2.5	-26.5	-0.7	x	i	1.0
Cc1nc2ccccc2cc1C(=O)N/N=C/c1ccc([N+](=O)[O-])cc1	x	x	0.1	6.3	5.5	-4.5	-4.5	i	-1.7
CC(=O)Nc1ccc(N2CCN(Cc3ccccc3)CC2)cc1	0.641	1.5	-0.4	17.1	6.5	-0.8	2.1	i	1.0
C=CCN(C)CC/C=C1\c2ccccc2CSc2ccccc21	0.659	0.8	-0.3	x	x	x	-7.7	x	-1.4
Cc1cc(NC(=O)Cn2cnc3c(cnn3C(C)(C)C)c2=O)no1	0.699	-1.9	-7.7	2.0	6.6	-4.1	-2.3	x	-3.3
Cc1oc2cc3oc(=O)c(CCC(=O)N4CCC(C(=O)O)(c5ccccc5)CC4)c(C)c3cc2c1C	x	x	x	-0.8	10.9	-3.0	x	i	2.7
CN(Cc1ccccc1)c1cc2c(c3c1ccn3C)C1CCC2O1 (stereo unspecified)	x	x	x	-0.2	-16.9	-3.7	x	i	2.6
Cc1ccc(Oc2ccc(NS(=O)(=O)c3cccc(C(=O)O)c3)cc2)cc1	0.636	2.1	8.6	-50.8	-77.0	-14.6	50.0	i	-1.6
CCN(C(=O)COC(=O)c1cccc(S(=O)(=O)N(C)C)c1)c1c(N)n(Cc2ccccc2)c(=O)[nH]c1=O	0.668	-0.1	-10.2	3.7	6.3	-0.6	x	i	-0.3
O=c1[nH]c(=O)n(Cc2ccco2)c2c1C(C(F)(F)F)(C(F)(F)F)N=C(c1ccco1)N2	0.661	1.4	6.2	x	x	x	-6.6	x	5.7
Cc1ccc(-c2n[nH]c(=O)c3ccccc23)cc1S(=O)(=O)NC(C)(C)C	0.714	1.0	-2.1	-3.5	-5.6	-1.0	0.4	x	2.9

Following part.
SMILES	E coli growth	UCH37 inh	B2AR ag	rRNA inh HTS	rRNA inh HTS OD600	rRNA inh HTS RFP	ALR H2O2 inh	FGF22 binding	HNF4A DNA FP
CCOC(=O)C1=C(CS(=O)(=O)c2ccc(C)cc2)NC(=O)NC1c1cc(OC)c(O)c(OC)c1 (stereo unspecified)	0.694	4.0	5.1	2.5	6.1	0.7	-25.4	i	-1.9
O=c1cc2c(nn1Cc1ccccc1)-c1ccccc1CC2	0.68	-1.1	1.7	-1.4	-13.1	-15.7	-9.4	i	3.0
Cc1n[nH]c(C)c1CN(C)C(=O)C1CCC(=O)N(CCc2cccc(F)c2)C1 (stereo unspecified)	0.683	1.2	1.4	-0.7	0.0	-2.2	-2.9	x	-0.9
O=C1CNC(=S)N1C(CO)c1ccccc1 (stereo unspecified)	0.678	5.3	-9.9	11.3	13.4	1.4	0.7	i	1.6
Cc1cc(C)c(OCC(O)CN2CCN(c3ccccn3)CC2)c(C)c1 (stereo unspecified)	0.674	3.3	-4.1	-9.0	-8.6	-1.5	-3.0	i	0.5
Cc1cccc(C)c1NC(=O)C(c1ccncc1)n1c(=O)c(-c2cc3ccccc3[nH]2)nc2ccccc21 (stereo unspecified)	x	x	x	-60.8	-81.0	-22.8	x	i	0.7
COc1ccc(CCNC2CC(C)N(C)CC2C)cc1OC (stereo unspecified)	0.712	4.9	-3.4	x	x	x	-9.8	x	-2.1
O=C(c1ccco1)N1CCN(C(=O)c2oc(=O)c3ccccc3c2-c2ccccc2)CC1	0.738	5.3	-7.9	-0.6	-1.3	2.0	-5.4	i	-2.1
O=C(NCCCN1CCOCC1)c1cc(Cl)ccc1Cl	0.697	3.0	-1.5	21.6	14.4	1.5	-3.8	i	0.0
CCOc1ccccc1NC(=O)COC(=O)c1cc(C(=O)OC)cc([N+](=O)[O-])c1	0.654	2.5	-6.5	x	x	x	-3.7	x	-1.9
CCOc1ccc2[nH]c3nc(SCC(=O)NC4CCCC4)nnc3c2c1	0.646	3.1	-5.3	8.9	19.4	-0.5	x	i	1.6
CCCCc1c(Cc2ccccc2)ncn1CCc1ccccc1OC	x	x	x	-51.8	-82.1	-17.1	x	i	-3.0
COc1ccc(/C=C\C(=O)CC(O)(c2ccccc2)C(F)(F)F)cc1 (stereo unspecified)	0.682	3.3	10.5	x	x	x	9.2	x	-2.3
COc1ccccc1NS(=O)(=O)c1cc([N+](=O)[O-])ccc1N/N=C/c1sc(N2CCOCC2)nc1-c1ccccc1	x	x	-366.8	7.6	8.8	10.2	-13.2	i	74.5*
O=c1c2ccccc2c(C=Nc2ccc(S(=O)(=O)N3CCCCC3)cc2)c(O)n1-c1ccc(Cl)cn1	0.726	0.9	7.8	x	x	x	-19.5	x	6.3
O=C1/C(=C/c2ccncc2)CCC/C1=C\c1ccncc1	0.662	6.0	46.8*	-9.9	-3.9	-4.1	x	i	0.7

Shown comma-delimited: three of the compounds above.
SMILES,E coli growth,UCH37 inh,B2AR ag,rRNA inh HTS,rRNA inh HTS OD600,rRNA inh HTS RFP,ALR H2O2 inh,FGF22 binding,HNF4A DNA FP
O=C(c1ccco1)N1CCN(C(=O)c2oc(=O)c3ccccc3c2-c2ccccc2)CC1,0.738,5.3,-7.9,-0.6,-1.3,2.0,-5.4,i,-2.1
COc1ccc(/C=C\C(=O)CC(O)(c2ccccc2)C(F)(F)F)cc1 (stereo unspecified),0.682,3.3,10.5,x,x,x,9.2,x,-2.3
Cc1cccc(C)c1NC(=O)C(c1ccncc1)n1c(=O)c(-c2cc3ccccc3[nH]2)nc2ccccc21 (stereo unspecified),x,x,x,-60.8,-81.0,-22.8,x,i,0.7
